YjeE inh: qHTS Assay for Inhibitors of YjeE | AID 605, 2007 | Potency, µM | purified YjeE, fluorescence polarisation of a bound ADP probe | hit rate 0.05% among 71,000; active = well fitted falling curve; inconclusive = weaker or top-dose-only fall, or a rising curve; inactive = flat or poorly fitted curve;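 further: top concentration of the series not given in the record; excess ADP was the control for the full effect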
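Purified YjeE (10 uM) with BODIPY Texas Red-labeled ADP probe (2 uM); compounds pin-transferred, 15 min at room temperature. Binding inhibition read as decreased fluorescence polarization; ADP titration as control.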
PK Bst: Pyruvate Kinase. partly purified Bacillus stearothermophilus pyruvate kinase, luminescence ATP production; ribose 5-phosphate activator present at AC10. Potency, µM. hit rate 1.2% among 51,000. AID 361, 2006; in the data active means potency below about 11 µM; inconclusive means mostly about 12 µM to 25 µM; inactive means weaker than that;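 the screen sought inhibitors and activators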;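 further: potency means the concentration at half of the fitted maximal effect; scaled between full activation by ribose 5 phosphate and full inhibition by luteolin; about four in five hits inhibit and the cells do not say which; series up to 57 µM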
An asterisk follows results filed as active; i = inactive; ? = inconclusive; / = no result given.

SMILES	YjeE inh	PK Bst
CC1(C)OC(=O)C2(Cc3ccccc3N3CCCCC32)C(=O)O1 (stereo not drawn)	i	>57
O=C(CSc1nnc(C2CC2)n1Cc1ccccc1)N1CCN(S(=O)(=O)c2ccccc2)CC1	i	>57
COC(=O)c1cc(COc2ccc3ccc(=O)oc3c2)c(C)o1	i	>57
Cc1nnc2ccc(N3CCN(c4ccccn4)CC3)nn12	i	/
CCOC(=O)N1CCN(C(=O)c2ccc3c(=O)n(-c4ccc(OC)cc4OC)c(=S)[nH]c3c2)CC1	i	>57
Cc1ccc(CCNC(=O)CS(=O)Cc2nc(-c3cccc(C)c3)oc2C)cc1 (stereo not drawn)	i	/
NC(=O)CSc1nc2sc3c(c2c2ncnn12)CCCC3	i	1.3*
Cc1ccc2[nH]c(=O)c(CN(Cc3nnnn3C3CCCC3)C3CCCCC3)cc2c1	i	>57
COc1ccc(Nc2ncc3c(n2)CC(c2ccccc2)CC3=O)cc1 (stereo not drawn)	i	>57
CC1CCN(S(=O)(=O)c2ccc(NC(=O)CN3CCN(C)CC3)cc2)CC1	i	>57
COc1cc(-c2nn3c(C4CCCCC4)nnc3s2)cc(OC)c1OC	/	>26
CC(C)CCn1nnnc1C(c1ccc(N(C)C)cc1)N1CCN(C(=O)c2ccco2)CC1 (stereo not drawn)	i	>57
CCCc1nc(S(=O)(=O)Cc2ccc(Cl)cc2Cl)n[nH]1	i	>57
c1ccc(-c2csc(N3CCN(c4ccccn4)CC3)n2)cc1	i	/
COc1ccc(Cl)cc1NC(=O)CSc1nnc(COc2ccccc2)n1N	i	>57
COc1cc(SC)ccc1C(=O)N1CCCCCC1	i	/
CCOc1cccc(-c2nnc3sc(-c4cccs4)nn23)c1	/	>26
N=c1ccn(Cc2ccc(Cl)cc2)cc1	i	>57
COc1ccc(-c2nnc(SCc3nnc(-c4ccccc4)o3)n2-c2ccccc2)cc1	i	/
Brc1ccc(-c2nnc3sc(CNC4CCCC4)cn23)cc1	i	/
CC1(C)CC(=O)C=C(NCCO)C1	/	>26
CCOC(=O)CCC(=O)OCC(=O)NC(C)C1CC2CCC1C2 (stereo not drawn)	i	>57
c1ccc2c(CNCCN3CCOCC3)cccc2c1	i	>57
COc1ccc(C(=O)CCN(C)C)c2ccccc12	i	/
Cc1ccccc1NS(=O)(=O)c1cc(C(=O)N2CCCC2)ccc1C	i	>57
COc1ccc(C(=O)CN2C(=O)NC3(CCCc4ccccc43)C2=O)cc1OC (stereo not drawn)	i	?
COc1ccc(/C(O)=C2/C(=O)C(=O)N(CCCN(C)C)C2c2ccc(Cl)cc2)cc1OC (stereo not drawn)	i	/
Cc1nnc(C)n1/N=C/c1cccc(Oc2ccccc2)c1	i	>57
O=C(NCc1ccco1)c1nc2ncccn2n1	i	>57
Cc1noc(C)c1C(=O)OCC(=O)NCCc1ccc(Cl)cc1	i	>57

In a second layout: results already given.
Structure: Cc1nnc(C)n1/N=C/c1cccc(Oc2ccccc2)c1
  YjeE inh: i
  PK Bst: >57
Structure: O=C(CSc1nnc(C2CC2)n1Cc1ccccc1)N1CCN(S(=O)(=O)c2ccccc2)CC1
  YjeE inh: i
  PK Bst: >57
Structure: COc1ccc(/C(O)=C2/C(=O)C(=O)N(CCCN(C)C)C2c2ccc(Cl)cc2)cc1OC (stereo not drawn)
  YjeE inh: i
  PK Bst: /
Structure: CCOC(=O)CCC(=O)OCC(=O)NC(C)C1CC2CCC1C2 (stereo not drawn)
  YjeE inh: i
  PK Bst: >57

The list continues.
SMILES	YjeE inh	PK Bst
Cn1c(=O)cc(SCC(=O)NCc2cccnc2)c2ccccc21	i	>57
CCN(CC)CCNC(=O)c1cn(CC)c2ccc(S(=O)(=O)N(C)C)cc2c1=O	i	/
COc1cccc(CNC(=O)c2cc3ccccn3n2)c1	i	/
O=C(CSc1nc2c(c(=O)n1-c1ccc(F)cc1)SCC2)N1CCCC1	i	>57
CC(C)Oc1ccc(C(=O)Nc2ccc(N3CCCC3)cc2)cc1	i	/
O=C(c1nsc(Cl)c1Cl)N1CCCCC1	i	/
CC(Oc1ccc(NC(=O)c2ccco2)cc1)C(=O)N1c2ccccc2CC1C (stereo not drawn)	i	/
O=C(COc1ccc(S(=O)(=O)NCCc2ccccc2)cc1)N1CCCC1	i	>57
Cc1cccc(C)c1Nc1nc2ccccc2o1	i	/
O=C(Nc1ccccc1C(F)(F)F)c1cc(-c2cccc(O)c2)on1	i	>57
COc1ccc(N2CCN(C(=O)c3ccc(CS(=O)(=O)c4ccc(OC)cc4)o3)CC2)cc1	i	/
Cl/C(=C\n1cncn1)c1ccc(Cl)cc1Cl	i	/
CC(C)CCNC(=O)C(C)N(Cc1ccc(F)cc1)C(=O)c1ccc(CN2CCCCC2)o1 (stereo not drawn)	i	>57
COc1ccc(CC(=O)OC(C)CN2CCCC2)cc1 (stereo not drawn)	i	>57
c1cn(-c2ccnc(-c3ccc4c(c3)OCO4)n2)cn1	i	/
Cc1cc(C)n2nc(S(=O)(=O)N(C)Cc3ccccc3)nc2n1	i	>57
CCC/C=C(\CCC)C(NC(=O)c1ccco1)c1ccc(C(=O)OC)cc1 (stereo not drawn)	i	/
COc1ccc2c(CN(C)c3ccccc3)cc(=O)oc2c1	i	>57
O=C(CC1CCCCC1)NCC1CCCO1 (stereo not drawn)	i	>57
O=S1(=O)CCC(N=Cc2cc(Br)ccc2O)C1 (stereo not drawn)	i	/
Cc1cc(-c2nnc3sc(C4CCCCC4)nn23)n[nH]1	i	>57
COCCSc1ccccc1C(=O)Nc1cc(C)on1	i	>57
O=C(CSc1nnc(CN2CCCCCC2=O)n1-c1ccccn1)NCC(F)(F)F	i	>57
Cc1sc2ncnc(N[C@@H](CCC(=O)O)C(=O)O)c2c1C	i	/
Cc1nnc(NC(=O)CSc2nnc(Cc3cccn3C)n2-c2ccccc2)s1	?	/
COC(=O)c1ccc2c(=O)n(CCN3CCOCC3)c(SCC(=O)NC3CCCCC3)nc2c1	i	>57
CCCc1nc2c(=O)[nH]c3ccccc3c2o1	i	/
Cc1ccc(NC(=O)CNc2cccc(C)c2C)c(C)c1	i	>57
CCOC(=O)c1c(C)[nH]c(NC(=O)Nc2c(C)n(C)n(-c3ccccc3)c2=O)c1C	i	>57
N=C(N)c1ccc(-c2ccc(-c3ccc(C(=N)N)cc3)o2)cc1	i	/

Record cards (already shown). Values in the order: YjeE inh	PK Bst
Listed for CC(C)Oc1ccc(C(=O)Nc2ccc(N3CCCC3)cc2)cc1 → i	/
Listed for Cc1cccc(C)c1Nc1nc2ccccc2o1 → i	/

Carrying on:
SMILES	YjeE inh	PK Bst
Cc1ccc(N2CC(C(=O)OCC(=O)C(C)(C)C)CC2=O)cc1 (stereo not drawn)	i	>57
CCc1cc(=O)oc2cc(OCC(=O)N(CC)CC)c(Cl)cc12	i	/
CC(c1ccccc1)N1C(=O)c2ccc(C(=O)NCc3ccco3)cc2C1=O (stereo not drawn)	i	>57
Nc1ccccc1[N+](=O)[O-]	i	/
CCOc1ccc(CCNC(=O)C2CCN(S(=O)(=O)CC)CC2)cc1OCC	i	>57
Oc1c(C(c2ccc(F)cc2)N2CCc3ccccc3C2)sc2ncnn12 (stereo not drawn)	i	/
Cc1cc2cc(C(c3nnnn3Cc3ccco3)N3CCc4ccccc4C3)c(=O)[nH]c2cc1C (stereo not drawn)	i	>57
O=c1c2ccc(-c3nnc4n3-c3ccccc3SC4)cc2nc2n1CCCCC2	i	>57
O=C(Nc1nnc(-c2ccco2)s1)C1CCCCC1	i	>57
COCCn1c(=O)c2c3c(sc2n(CC(N)=O)c1=O)CCCC3	i	>57
Cn1cccc1Cc1nnc(SCC(=O)NCc2ccc(F)cc2)n1-c1ccc(F)cc1	i	/
C[N+](C)(C)CC=O	i	/
CCN(CC)CCCNC(=O)CC1Oc2ccc(C)cc2NC1=O (stereo not drawn)	i	/
CCOc1ccccc1C1C(C(=O)Nc2ccccc2OC)=C(C)Nc2nc(CCCO)nn21 (stereo not drawn)	i	/
NC(=O)COC(=O)c1ccc(S(=O)(=O)N2CCCCCC2)cc1	i	>57
CCOC(=O)N=S(N)(=O)c1ccc(Cl)cc1 (stereo not drawn)	i	>57
COc1ccc(CNC(=O)Nc2cccc(C)c2)cc1	i	>57
O=C(c1ccco1)N1C(=O)c2cccc3cccc1c23	i	>57
N#Cc1cc2c(nc1SCc1ccccc1)CCCC2=O	i	>57
CN(C(=O)C1CCCO1)c1nnc(-c2ccncc2)s1 (stereo not drawn)	i	>57
COc1cccc(=O)c2c(C)n(C)c(C)c12	i	?
NC(=O)C1CCN(C(c2ccccc2Cl)c2nnnn2Cc2ccc3c(c2)OCO3)CC1 (stereo not drawn)	i	>57
CCOC(=O)c1c(C)c(C(=O)NCc2cccs2)c(C)n1C	i	>57
CCN(CC(=O)O)S(=O)(=O)c1cc(Cl)ccc1Cl	i	>11
COc1ccc(NC2CC(=O)NC2=O)cc1 (stereo not drawn)	i	>57
Cc1c(C)c(C)c(CC2(C)CSC2)c(CC2(C)CSC2)c1C	i	/
CC(C)(C)c1onc(OCP(=O)(O)O)c1C[C@@H](N)C(=O)O	i	/
Cc1noc(NS(=O)(=O)c2ccc(NC(=O)CS(=O)(=O)c3ccccc3)cc2)c1C	i	>57
O=C(Nn1c(Cc2cccs2)nc2ccccc2c1=O)c1cccs1	i	>57
COc1ccc(N2CC(C)Cn3c2nc2c3c(=O)n(Cc3ccccc3F)c(=O)n2C)c(OC)c1 (stereo not drawn)	i	>57
COc1ccccc1Cn1c(=O)c2ccccc2n2c(SCC(=O)N3CCCCC3)nnc12	i	>57
COC(=O)c1ccc(NC(=O)c2ccccc2N(C)S(C)(=O)=O)cc1	i	>57
CCOC(=O)C1CCN(C(=O)c2c(-c3c(Cl)cccc3Cl)noc2C)CC1	i	>57
COc1cc(C(=O)Nc2nnc(-c3sccc3C)s2)cc(OC)c1OC	i	>57
CCCCN(CC)CCNC(=O)CN(C)S(=O)(=O)c1ccc2c(c1)c(=O)n(C)c(=O)n2C	i	>57
CCOCCCNC(=O)N[C@@H](C)C(=O)OC	i	>57
C=CCn1c(SCc2ccc(C#N)cc2)nnc1-c1cccc(OC)c1	i	>57
CCCCC(NC(=O)c1ccc(Cl)cc1)C(=O)O (stereo not drawn)	i	/
Cc1ccc(C2c3c(oc4ccccc4c3=O)C(=O)N2c2nnc(C(C)C)s2)o1 (stereo not drawn)	i	/
Cc1cc(C(F)(F)F)nn1CC(=O)N1CCCC1	i	>57
CCOC(=O)N1CCC(Nc2nc3ccccc3nc2NS(=O)(=O)c2ccc(Cl)cc2)CC1	i	>57
Clc1ccc(NC2=NCCCCC2)cc1	i	>57
Cc1ccnc(SCCn2c(N3CCCCC3)nc3c2c(=O)n(C)c(=O)n3C)n1	i	>57
Cn1c(=O)c(=O)n(C)c2cc(S(=O)(=O)N3CCc4ccccc43)ccc21	?	>57
CC1CCN(C(=O)CSc2nnc(Cc3cccn3C)n2CCc2ccccc2)CC1	i	/
O=C(c1cc(C(F)(F)F)cc(C(F)(F)F)c1)N1CCC2(CCCN(c3ccccc3)C2)CC1	i	/
CC1CN(c2nc(-c3ccccc3)nc3ccccc23)CC(C)O1 (stereo not drawn)	i	/
COc1ccc(S(=O)(=O)N2CCC(C)CC2)cc1Br	i	>57
CC12CCC(CC1=O)C2(C)C (stereo not drawn)	i	/
COc1ccc(OC)c(NC(=O)CNC(=O)Cn2ccc3ccccc3c2=O)c1	i	/
c1ccc2c(c1)NC(c1ccncc1)n1c-2nc2ccccc21 (stereo not drawn)	/	i
COc1cc(SC)ccc1C(=O)Nc1ccc2c(c1)CCN2S(C)(=O)=O	i	/
O=C(Cc1c[nH]c2ccccc12)Nc1nccs1	i	>57
O=C(NC1CCCCC1)C(c1cccs1)N(CC1CCCO1)C(=O)c1csnn1 (stereo not drawn)	i	>57
COc1ccc2nc(C)[nH]c(=O)c2c1	i	>57
COc1ccc(NS(=O)(=O)c2ccc3oc4ccccc4c3c2)cn1	i	>57
O=C(Nc1nnc(C2CC2)s1)c1cc(-c2ccccc2)nn1-c1ccccc1	i	>57
COc1ccccc1OCC(=O)Nc1ccc(S(=O)(=O)Nc2nc(C)cc(C)n2)cc1	i	/
CCCS(=O)(=O)N1CCN(C(=O)c2ccccc2F)CC1	i	>57
Cc1ccc(Cn2cccc(NC(=O)c3ccco3)c2=O)cc1	i	/

(listing goes on)
SMILES	YjeE inh	PK Bst
CCN(CC)CCNC(=O)c1c(O)c2cccc3c2n(c1=O)CCC3	i	>57
Cc1ccc(S(=O)(=O)CC(=O)N(C)C)cc1	i	>57
Cc1nn(C)cc1CNC(=O)c1ccccc1Br	i	>57
Cn1cccc1C(=O)N1CCC2(CC1)CN(Cc1cc(C(F)(F)F)cc(C(F)(F)F)c1)C2	i	/
COc1ccc(-n2cnnc2SCc2csc(-c3ccccc3)n2)cc1	i	>57
Cc1cc(-c2cc(-c3ccc(Cl)cc3)nc(N)c2C#N)co1	/	>26
COc1ccc(-c2cc(C(=O)N3CCCc4ccccc43)no2)cc1OC	i	>57
CCOC(=O)c1sc(=S)n(-c2ccc3c(c2)OCO3)c1N	i	>57

From PubChem BioAssay

An excerpt. The share of hits here may be higher or lower than overall.
